FGF22 binding: shifts melting point of recombinant human FGF22; Q9HCT0; recombinant FGF22 thermal shift, SYPRO orange fluorescence; percent of sucrose octasulfate shift, DMSO zero; calls only at 9.99 µM; actives 1.5% (n = 340,000);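 active means melting point raised past a set limit in the mean and every replicate; three in four hits are not shown here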
Target sequence (Q9HCT0 whole entry, looked up): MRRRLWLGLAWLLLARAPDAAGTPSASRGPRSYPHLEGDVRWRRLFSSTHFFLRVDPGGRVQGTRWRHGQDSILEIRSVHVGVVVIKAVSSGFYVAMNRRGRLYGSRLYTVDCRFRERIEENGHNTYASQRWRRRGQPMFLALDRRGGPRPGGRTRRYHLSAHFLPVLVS
Ecoli growth: inhibitors of Escherichia coli growth. OD600, 23 h; hits give low values. OD600 absorbance (no concentration beside the values). actives 0.21% (n = 330,000);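 active means OD600 absorbance below the run mean of sample wells minus 3.6 SD, in any replicate, cut at about 0.56 in these data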;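 further: stock transfer was 300 nL into about 60 µL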
HNF4A DNA FP: change in binding of human HNF4 alpha to DNA; P41235; HNF4a-FITC DNA binding, fluorescence polarization, 1 h; activity change, % at 10 µM; actives 0.3% (n = 360,000); in the data active means activity change above about 30%, passing the limit was not always enough;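 further: controls were the assay level and a saturating level of protein; the project sought stronger binding though the title names inhibitors; some compounds called inactive have numbers as strong as hits; positive values seem to mean higher polarization but the record does not say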
B2AR ag: human beta-2 adrenergic receptor agonism by FAP | AID 504454 | actives 0.43% (n = 340,000) | Am2.2-beta2AR cells, FAP receptor internalization, flow cytometry; reference of the scale not given here | response, % (concentration not given with the values) | P07550;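 active means response above a set limit, near 3 SD of response in nonfluorescent compounds, cut at about 42% in these data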;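 further: stock transfer was 100 nL into about 11 µL; a reference agonist was the positive control; negative values mostly stem from fluorescent compounds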
Ecoli rRNA inh: selective bacterial rRNA inhibition in E. coli; E. coli WT GFP vs humanized-ribosome RFP mutants, fluorescence, 24 h; hits give low values; DMSO median 0, no signal -100; GFP signal change (wild-type ribosome), % (concentration not given with the values); actives 1.6% (n = 350,000); AID 720706;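 active means significant combined selectivity score with lowered wild-type GFP, culture density cut under 30%, mutant RFP and density less affected; inactive means any of these conditions unmet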; further: one replicate is shown; some compounds called inactive have numbers as strong as hits
ALR inh: blocks human ALR sulfhydryl oxidase activity; P55789; actives 3.8% (n = 290,000); inhibition, % (no concentration beside the values); purified ALR, DTT oxidation, H2O2 HRP-luminol luminescence;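 active means mean and each replicate at 75% or more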;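 further: stock transfer was 7.5 nL into about 7.5 µL; 0% = neutral wells and 100% = wells with inactivated enzyme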
Target sequence (P55789 whole entry, looked up): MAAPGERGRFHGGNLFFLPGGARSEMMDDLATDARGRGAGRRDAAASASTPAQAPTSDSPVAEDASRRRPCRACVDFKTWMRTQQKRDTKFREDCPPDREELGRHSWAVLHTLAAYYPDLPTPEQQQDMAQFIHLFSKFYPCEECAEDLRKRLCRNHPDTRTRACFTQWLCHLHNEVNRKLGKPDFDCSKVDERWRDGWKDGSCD
UCH37 inh: blocks the human deubiquitinase UCH37; inhibition, % (concentration not given with the values); purified proteasome/UCH37, Ub-AMC cleavage fluorescence; actives 0.33% (n = 330,000); Q9Y5K5;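 active means mean of two replicates above 20%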;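 further: 0% = compound-free wells with enzyme and 100% = wells lacking proteasome; stock transfer was 100 nL into about 20 µL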
Target sequence (Q9Y5K5 whole entry, looked up): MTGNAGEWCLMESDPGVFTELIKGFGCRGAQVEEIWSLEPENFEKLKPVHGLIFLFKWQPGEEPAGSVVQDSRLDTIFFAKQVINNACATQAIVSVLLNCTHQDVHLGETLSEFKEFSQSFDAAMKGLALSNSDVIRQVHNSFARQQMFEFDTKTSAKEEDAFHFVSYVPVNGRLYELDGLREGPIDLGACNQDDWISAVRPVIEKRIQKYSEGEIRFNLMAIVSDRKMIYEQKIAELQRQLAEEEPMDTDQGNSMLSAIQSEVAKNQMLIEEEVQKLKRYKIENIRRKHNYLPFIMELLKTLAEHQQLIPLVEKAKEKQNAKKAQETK
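Material: Human UCH37 enzyme supplied as purified proteasome complex | Schedule: 30 min preincubation with enzyme, 25 min cleavage at room temperature | Detection: AMC fluorescence 355/460 nm | Measure: % inhibition of Ub-AMC cleavage fluorescence | Controls: Wells without proteasome as full block, compound-free enzyme plus substrate as uninhibited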
Ecoli rRNA inh OD600: further read-out of Ecoli rRNA inh, marked with its call; OD600 change, %; measured here: OD600 growth;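 optical density of the mix in the first replicate; 0 = DMSO median and -100 = no signal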
Ecoli rRNA inh RFP: recorded beside Ecoli rRNA inh, whose call it bears; RFP signal change, %; measured here: RFP humanized mutant strains;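 first replicate; 0 = DMSO median and -100 = no signal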
* = called active by the depositor; i = inactive; . = not tested or not shown; + = active, no number. This is a subset; the hit share may differ from the screen's.

SMILES | FGF22 binding | Ecoli growth | HNF4A DNA FP | B2AR ag | Ecoli rRNA inh | Ecoli rRNA inh OD600 | Ecoli rRNA inh RFP | ALR inh | UCH37 inh
CCCS(=O)(=O)N1CCCC(C(=O)c2ccccc2OC)C1 (stereo not drawn) | i | 0.678 | 0.8 | 5.2 | -5.2 | -4.9 | -1.3 | -14.5 | -1.3
CCOC(=O)Cc1csc(NS(=O)(=O)Cc2ccccc2)n1 | . | 0.729 | 3.1 | 10.1 | . | . | . | . | 2.5
COc1ccc(NC(=O)C2CCCN2S(=O)(=O)c2cccs2)c([N+](=O)[O-])c1 (stereo not drawn) | i | 0.63 | -4.6 | 4.3 | -1.3 | 0.9 | -2.0 | -10.0 | 6.9
CCN(C(=O)COC(=O)C1CC1)c1c(N)n(Cc2ccccc2)c(=O)[nH]c1=O | i | 0.678 | -0.5 | 7.6 | 0.6 | -0.4 | -1.5 | -0.9 | 2.8
CC(=O)c1ccc(-c2ccc(C(=O)NC3CC(C)(C)NC(C)(C)C3)o2)cc1 | i | 0.649 | -3.3 | -7.3 | 2.3 | 12.0 | -2.1 | 98.0* | i
CCN1CNC(=S)N(CCc2ccccc2)C1 | i | 0.694 | -0.4 | 6.7 | 5.1 | 2.2 | 1.2 | -1.8 | 0.7
CC(=O)c1cccc(N(C(=O)c2ccco2)C(C(=O)NC2CCCC2)c2ccncc2)c1 (stereo not drawn) | . | 0.696 | 4.1 | 5.0 | . | . | . | 0.3 | -2.0
CSc1ccccc1NC(=O)Nc1ccccc1 | i | 0.668 | 2.1 | 0.4 | -12.6 | -25.7 | -16.4 | -9.9 | 4.9
CCCCNC(=O)C(C#N)c1nc2ccccc2nc1N1CCN(c2ccccc2F)CC1 (stereo not drawn) | . | 0.757 | -0.7 | -10.6 | . | . | . | 4.1 | -9.3
Cc1nnc(NC(=O)c2oc3ccccc3c2C)s1 | i | 0.635 | 5.7 | -13.6 | 9.8 | 8.2 | -1.8 | -6.8 | -3.5
CC(C)Cn1c(O)c(/C=C2\C=NN=C2c2ccccc2)sc1=S | . | 0.716 | -1.3 | 33.5 | . | . | . | . | 15.4
Cc1cc2nnc(SCC(=O)OC(C)C)n2c2ccccc12 | . | 0.722 | 0.7 | 4.5 | . | . | . | -4.3 | 4.0
O=C1NN(c2ccc(Cl)c(Cl)c2)C(=O)/C1=C/c1ccc(-c2ccccc2C(=O)O)o1 | i | 0.667 | -14.2 | -13.2 | 17.5 | -7.1 | 12.4 | 99.0* | 9.1
CC(C)(C)NC(=O)NC(=O)C[n+]1ccc(Cc2ccc([N+](=O)[O-])cc2)cc1 | i | 0.656 | 1.1 | -6.1 | -14.5* | 11.2* | 0.5* | 37.2 | 3.8
C(=NOCCc1ccccc1)c1ccncc1 | i | 0.647 | 2.5 | -6.6 | -4.4 | -7.2 | -0.2 | . | 2.6
CC(C)(C)c1ccc(OCCC(=O)Nc2cccc(S(=O)(=O)N3CCCCC3)c2)cc1 | i | . | -3.5 | -19.4 | -4.8 | -9.3 | -2.4 | -0.1 | -0.2
CCCCN(CC)CCNC(=O)C1c2cc(OC)c(OC)cc2C(=O)N2CCc3ccccc3C12 (stereo not drawn) | . | 0.719 | -1.2 | -2.2 | . | . | . | -13.2 | -1.7
COc1ccc(CN(C(=O)c2ccco2)C2CC(C)N(C)CC2C)cc1 (stereo not drawn) | . | 0.697 | 1.1 | -0.5 | . | . | . | -4.9 | 0.8
Nc1nc(SC2c3cccc4cccc(c34)C2NS(=O)(=O)c2ccccc2)n[nH]1 (stereo not drawn) | . | 0.712 | 0.3 | -9.2 | . | . | . | -26.1 | 5.1
Cc1cccn2c(=O)c(/C=C(\C#N)S(=O)(=O)c3ccccc3)c(N3CCCCC3)nc12 | i | 0.682 | 19.3 | -8.2 | 9.3 | -11.5 | 15.9 | -7.7 | -16.4

Reprinted from the part before: 5 compounds, then new ones.
SMILES | FGF22 binding | Ecoli growth | HNF4A DNA FP | B2AR ag | Ecoli rRNA inh | Ecoli rRNA inh OD600 | Ecoli rRNA inh RFP | ALR inh | UCH37 inh
CC(C)(C)c1ccc(OCCC(=O)Nc2cccc(S(=O)(=O)N3CCCCC3)c2)cc1 | i | . | -3.5 | -19.4 | -4.8 | -9.3 | -2.4 | -0.1 | -0.2
CCCCN(CC)CCNC(=O)C1c2cc(OC)c(OC)cc2C(=O)N2CCc3ccccc3C12 (stereo not drawn) | . | 0.719 | -1.2 | -2.2 | . | . | . | -13.2 | -1.7
COc1ccc(CN(C(=O)c2ccco2)C2CC(C)N(C)CC2C)cc1 (stereo not drawn) | . | 0.697 | 1.1 | -0.5 | . | . | . | -4.9 | 0.8
Nc1nc(SC2c3cccc4cccc(c34)C2NS(=O)(=O)c2ccccc2)n[nH]1 (stereo not drawn) | . | 0.712 | 0.3 | -9.2 | . | . | . | -26.1 | 5.1
Cc1cccn2c(=O)c(/C=C(\C#N)S(=O)(=O)c3ccccc3)c(N3CCCCC3)nc12 | i | 0.682 | 19.3 | -8.2 | 9.3 | -11.5 | 15.9 | -7.7 | -16.4
CC(C)CN(C(=O)COC(=O)c1c2c(nc3ccccc13)CCC2)c1c(N)n(Cc2ccccc2)c(=O)[nH]c1=O | i | 0.664 | 1.9 | -6.0 | -9.6 | -15.6 | 3.9 | 1.5 | -0.8
Cc1cc(/C=C2\C(=N)N3N=C(C(C)C)SC3=NC2=O)c(C)n1Cc1ccccc1 | i | 0.654 | -1.5 | 7.9 | -14.6 | -22.8 | 4.2 | -8.7 | 1.9
Cc1ccc(NC(=O)COC(=O)c2ccc(CN3CCCC3=O)cc2)c(Cl)c1 | i | 0.69 | 2.8 | 1.7 | 9.1 | 10.4 | 0.9 | -2.5 | -1.4
CCCn1nc(C(=O)Nc2cc(OCC)c(N3CCOCC3)cc2OCC)c2ccccc2c1=O | i | 0.695 | -4.8 | 15.6 | -1.6 | 8.5 | -4.2 | . | 2.2
O=C(NCc1ccco1)c1c[nH]c2ccc(S(=O)(=O)N3CCOCC3)cc2c1=O | . | 0.737 | -1.2 | -10.1 | . | . | . | . | -3.4
O=C(NCCN1CCOCC1)c1ccc(CS(=O)(=O)c2ccc(Cl)cc2)o1 | . | 0.687 | 0.5 | -3.6 | 16.5 | 8.5 | 1.5 | -7.3 | 2.4
Cc1ccc(-c2nc3ccccc3s2)cc1NC(=S)NC(=O)c1ccccc1 | . | 0.728 | 2.9 | -0.5 | . | . | . | -7.7 | -2.8
CCc1cccc(OCCCCNCCO)c1 | . | 0.726 | 3.0 | -7.1 | . | . | . | 2.3 | 1.9
Cc1ccc(C(=O)Oc2ccc(/C=N/NC(N)=O)cc2)cc1 | i | . | 1.7 | -2.2 | 13.2 | 20.0 | 1.1 | . | .
COc1ccc(C2=Nn3c(nnc3-c3ccncc3)SC2)cc1OC | . | 0.683 | -0.8 | 0.0 | . | . | . | -2.3 | 8.2
CCOC(=O)C1CCN(C(=O)c2cc(S(=O)(=O)N3CCOCC3)c(Cl)cc2Cl)CC1 | . | 0.739 | 0.7 | -0.7 | . | . | . | 2.5 | -6.1
Cc1cc(Cl)cc(Br)c1OCCCN1C(=O)NC(C)(C)C1=O | . | 0.712 | -1.1 | 2.0 | . | . | . | 7.7 | 1.9
CN1C(=S)SC(/[N+]([O-])=C/c2ccc(Cl)cc2)C1(C)C (stereo not drawn) | i | 0.679 | 1.8 | 9.9 | 5.7 | -5.1 | -1.2 | 10.6 | 2.5
CC(=O)c1c(-c2ccc(Cl)cc2)c2ccccc2[nH]c1=O | i | 0.69 | 8.9 | 2.9 | 2.8 | -3.8 | 0.8 | -4.4 | 0.1
COC(=O)c1cc(-c2cccc(OC)c2)n[nH]1 | . | 0.668 | 3.1 | 15.0 | . | . | . | 8.2 | 7.4
O=C(O)C1Cc2ccccc2CN1C(=O)COc1ccc(Cl)cc1Cl (stereo not drawn) | i | 0.708 | -1.7 | -1.2 | -4.7 | 5.2 | -0.9 | -12.1 | 5.0
Cc1ccc(S(=O)(=O)c2nnn(-c3cccc(F)c3)c2N)cc1 | + | 0.692 | -1.0 | -2.9 | 2.2 | -9.0 | -5.1 | -4.5 | -0.3
COc1cc(OC)c(-c2nn3c(-c4ccco4)nnc3s2)cc1OC | . | 0.681 | -3.5 | 3.9 | . | . | . | . | -167.2
CNS(=O)(=O)c1cn(CC(=O)NCc2cccc(OC)c2)cc1S(=O)(=O)NC | i | 0.635 | 2.8 | -3.0 | -3.4 | 0.9 | -0.8 | -5.7 | 1.8
Nc1[nH]c(C(=O)c2ccccc2)c(-c2ccc(Cl)cc2Cl)c1C(=O)c1ccc(Br)cc1 | i | . | 3.2 | . | -5.4 | -2.7 | 7.8 | . | .
COc1ccc(C(=O)C(OC(=O)CNC(=O)c2ccco2)c2ccccc2)cc1 (stereo not drawn) | . | 0.708 | -0.6 | 7.5 | . | . | . | . | 0.7
C[C@]12c3[nH]c4ccc(Cl)cc4c3CCN1C(=O)[C@@H](CC(=O)NCCC1=CCCCC1)C[C@@H]2C(=O)N1CCCCC1 | i | 0.721 | 1.7 | 1.1 | 1.1 | 4.6 | 1.5 | . | -0.9
CCCN1CCN(C(=O)C2CCN(S(=O)(=O)c3c(C)noc3/C=C/c3ccc(C)cc3)CC2)CC1 | i | 0.662 | -1.4 | 24.7 | -51.5 | -77.7 | -9.8 | -6.8 | 3.0
CCCCN=C1CC(C)(C)CC(=O)/C1=C(/O)CCCN1C(=O)c2ccccc2C1=O | i | . | 0.8 | -11.4 | -8.8 | -7.8 | 1.2 | . | .
CCOC(=O)CN(C(=O)CNC(=O)c1ccco1)C(C(=O)NC1CCCCC1)c1cccnc1 (stereo not drawn) | i | 0.669 | 4.0 | -0.4 | . | . | . | -4.6 | 1.5
CC(C)(C)c1nnc(NC(=O)Cc2ccc(Br)cc2)s1 | i | 0.737 | -5.5 | -9.1 | 11.7 | 2.8 | -4.4 | -0.9 | 5.0
C=CCOc1cccc(C2C(C(=O)c3ccc(C)o3)=C(O)C(=O)N2c2nccs2)c1 (stereo not drawn) | . | 0.722 | -47.8 | 5.0 | . | . | . | 18.5 | 1.9
Cc1ccc(CN(C)C(=O)c2cccc(S(=O)(=O)N3CCN(c4ccccc4)CC3)c2)cc1 | i | 0.715 | 1.1 | 3.6 | -9.0 | -11.4 | 0.0 | . | -2.5
Cc1ccc(C(=O)C2C(=O)c3ccccc3C2=O)cc1 | . | 0.619 | 2.0 | -10.8 | . | . | . | 6.7 | 15.8
Cc1ccnc(NC(=O)CN(C)S(=O)(=O)c2cccc3nsnc23)c1 | . | 0.741 | -2.5 | -0.9 | . | . | . | -8.3 | -0.7
COc1ccc(N2CCN(C(=O)c3cc(-c4cccs4)nc4ccccc34)CC2)cc1 | i | . | -1.4 | 6.5 | -4.2 | 1.9 | 5.5 | -36.5 | .
CCOC(=O)c1ccc2c(c1)nc(-c1ccccn1)n2CC | i | 0.701 | 1.6 | -3.0 | -2.2 | -15.3 | 5.3 | -4.0 | 4.2
CCCNC(=O)c1onc(CSc2nc3ccccc3[nH]2)c1C(=O)NCCC | i | 0.672 | -3.5 | -10.5 | -1.1 | -5.7 | -2.2 | 8.8 | -0.3
Cc1ccc(S(=O)(=O)N2CCC(n3nnc4cc(C)ccc43)CC2)cc1 | . | 0.698 | 0.8 | 1.4 | . | . | . | -4.9 | -2.0
CC(C)N(Cc1nc(-c2ccccc2)no1)C(=O)COc1ccccc1 | i | 0.704 | -1.2 | -17.9 | 0.4 | -16.8 | -4.9 | 4.1 | 3.1
O=C(Cc1ccccc1)N/N=C/c1cc(Br)c(Br)o1 | . | . | -1.9 | 2.9 | . | . | . | 2.5 | .

Compound activity from PubChem.
